D2 ag: activates the human D2 dopamine receptor; P14416; DiscoveRx PathHunter D2 beta-arrestin, luminescence, 90 min; 100% = 57 uM dopamine signal; activation, % (test concentration not listed); hit rate 0.084% among 360,000; in the data active = activation above about 40%; inconclusive = about 15% to 40%; inactive = below about 15%; note: compound concentration not given in the record; the text of the record calls up to 30% inactive
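Agonist mode: compounds alone added to overnight-plated D2 PathHunter cells for 90 min at 37 C, with 57 uM final dopamine (EC100) defining full response. Beta-arrestin recruitment detected by chemiluminescent reagent, read after 1 h at ambient temperature.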
Sfp PPTase inh: blocks B. subtilis Sfp PPTase activity | Potency, µM, inactives show max response, negative = inhibition, usual class: inhibitors | Biochemical Sfp PPTase activity, qHTS | Q9F4F7 | hit rate 3.5% among 310,000; active = well fitted inhibition curve with a large enough effect; inconclusive = small, poorly fitted or top-dose-only effect, or another doubt; inactive = no such curve, though single readings can be large or run the other way;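 note: the enzyme is Sfp with the accession as filed and its product quenches rhodamine fluorescence; potency is the fitted concentration of half-maximal effect; 0% = enzyme reaction without inhibitor and -100% = no enzyme wells; top concentration of the series not given in the record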
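Fluorescence-quenching assay: 15 nM Sfp-PPTase preincubated 15 min at room temperature with compound, then 5 uM rhodamine-CoA and 12.5 uM BHQ-2-labelled YbbR peptide added. Fluorescence (ex 525/em 598 nm) read at start and after 30 min; difference gives rate.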
CtBP-E1A inh: CtBP/E1A binding inhibition; AlphaScreen GST-E1A/His-CtBP binding, 1536-well; stronger effect = lower value; control for the full effect not named in the record; activity change, % (no concentration beside the values); hit rate 0.49% among 340,000; in the data active means activity change below about -65%; inconclusive means about -30% to -65%; inactive means above about -30%; note: % is set by controls: 0 for no effect and ±100 for the full control effect; compound concentration not given in the record
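GST-E1A and His-tagged CtBP (125 nM each as 5X stock) were preincubated with pin-transferred compound for 2 h at 37 °C in the dark, then glutathione donor and nickel acceptor beads were added for 1 h before AlphaScreen reading.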
Six1-Eya2 inh: inhibitors of human Six1/Eya2 interaction; Q15475+O00167; AlphaScreen GST-Six1/His-Eya2 binding, biochemical; stronger effect = lower value; control for the full effect not named in the record; activity change, % (concentration not given with the values); hit rate 0.56% among 360,000; in the data active = activity change below about -65%; inconclusive = about -30% to -65%; inactive = above about -30%; note: % is set by controls: 0 for no effect and ±100 for the full control effect
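AlphaScreen with GST-Six1 and His-Eya2 (5X mix: 250 nM and 500 nM), glutathione donor and nickel acceptor beads; buffer 50 mM Tris pH 8.0, 300 mM NaCl, 1 mM TCEP; 1 h at 37 C in the dark.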
D2 PAM: potentiates the human D2 dopamine receptor allosterically; hit rate 0.23% among 360,000; potentiation, % (test concentration not listed); P14416; DiscoveRx D2 beta-arrestin cells, luminescence, 90 min; 100% = 57 uM dopamine signal; active = potentiation of 50% or more; inconclusive = 30% to 50%; inactive = 30% or less;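 note: compound concentration not given in the record; tested on top of an EC20 dose of dopamine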
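PathHunter beta-arrestin assay in DiscoveRx D2 cells. Compounds were added with an EC20 of dopamine (50 nM final) for 90 min at 37 deg C. Luminescence was read 1 h after detection reagent, with 57 uM dopamine as the EC100 control.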
PINK1 expr mod: modulators of PINK1 expression. PINK1 immunofluorescence, high-content cytometry, 24 h. AID 624263. Potency, µM (top dose mostly 76.6 µM), for the others: top-dose activation (PINK1 increase), hits mostly activators. hit rate 0.2% among 410,000; active = well fitted activation curve with a large enough effect; inconclusive = small, poorly fitted or top-dose-only effect; inactive = flat fitted curve, though single readings scatter; cell line not stated here;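 note: potency is the fitted concentration of half-maximal effect; % of control where 0% means no effect; nearly all actives have a fitted effect of over 65% in size; a mitochondrial uncoupler was the plate control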
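PINK1 protein level read as immunofluorescence by microplate cytometer in a fixed, stained stable cell line after 24 h exposure to five compound concentrations, with CCCP as control.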
TRPV1 PAM: potentiators of human vanilloid receptor 1 (TRPV1) | Q8NER1 | TRPV1-expressing cells, Fluo-8 calcium influx, capsaicin EC20 potentiation; host cell line not named in the record; control for the full effect not named in the record | potentiation, % at 8.33 µM | hit rate 0.02% among 320,000; active means potentiation above 80%; inconclusive means 30% to 80%; inactive means below 30%; note: 0% is about no effect
Target sequence (Q8NER1 whole entry, looked up): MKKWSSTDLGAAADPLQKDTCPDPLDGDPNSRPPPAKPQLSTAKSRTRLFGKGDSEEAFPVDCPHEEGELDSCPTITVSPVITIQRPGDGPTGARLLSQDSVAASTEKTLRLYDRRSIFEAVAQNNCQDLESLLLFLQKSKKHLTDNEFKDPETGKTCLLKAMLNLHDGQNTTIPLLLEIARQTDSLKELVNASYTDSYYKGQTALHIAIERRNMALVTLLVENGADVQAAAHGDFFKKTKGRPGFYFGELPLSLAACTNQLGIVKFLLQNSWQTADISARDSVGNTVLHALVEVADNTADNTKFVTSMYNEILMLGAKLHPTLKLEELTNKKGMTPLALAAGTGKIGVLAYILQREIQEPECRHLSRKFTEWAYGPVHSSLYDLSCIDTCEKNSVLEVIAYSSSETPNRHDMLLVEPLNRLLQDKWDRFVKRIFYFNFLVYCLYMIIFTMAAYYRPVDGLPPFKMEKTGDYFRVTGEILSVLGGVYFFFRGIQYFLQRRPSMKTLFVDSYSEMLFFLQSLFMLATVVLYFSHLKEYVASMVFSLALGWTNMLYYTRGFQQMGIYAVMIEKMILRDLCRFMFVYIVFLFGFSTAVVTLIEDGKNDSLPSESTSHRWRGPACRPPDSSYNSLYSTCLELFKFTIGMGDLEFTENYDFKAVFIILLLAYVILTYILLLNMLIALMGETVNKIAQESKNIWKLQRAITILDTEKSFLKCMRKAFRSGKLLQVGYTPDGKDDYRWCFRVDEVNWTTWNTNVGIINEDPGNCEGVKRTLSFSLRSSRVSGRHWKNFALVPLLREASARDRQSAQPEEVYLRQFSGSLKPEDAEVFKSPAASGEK
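TRPV1-expressing cells were cultured overnight at 35.5C and loaded with Fluo-8 calcium dye for 40 to 90 min at room temperature. After a 10 s baseline, compound was added and calcium influx was read kinetically for 3 min (ex 480/em 520 nm).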
Active calls of the source: *; ? = inconclusive; . = not tested or not shown; & = joins results of further samples; [ ] = remark or other dose.

mol,D2 ag,Sfp PPTase inh,CtBP-E1A inh,Six1-Eya2 inh,D2 PAM,PINK1 expr mod,TRPV1 PAM
CCN(CC)S(=O)(=O)c1ccc2c(c1)nc(CCC(=O)O)n2CC,-3.7,12%,0,-8,7,-0.9%,2
Cc1ccc(CNC(=O)C(=O)NCC2OCCCN2S(=O)(=O)c2cccs2)cc1 (stereo not drawn),-2.3,5%,5,4,-7,1.7%,-9
CC(=O)c1ccc(S(=O)(=O)NC2CC2)cc1,1.7,9%,2,1,1,-1.2%,-2
CC(CSC(=O)c1ccccc1)C(=O)N1c2ccccc2CC1C(=O)O (stereo not drawn),-4.8,.,0,-7,-7,1.8%,.
COc1ccc(OC(=O)c2cccc(S(=O)(=O)N3CC(C)OC(C)C3)c2)cc1 (stereo not drawn),2.0,.,17,0,-15,0.6%,?
O=C(COc1ccccc1Cl)NNC(=O)c1ccc2nc[nH]c2c1,1.0,.,-14,7,0,-1.5%,-15
Cn1c(SCC(=O)NCCNC(=O)CSc2nnc(C(F)(F)F)n2C)nnc1C(F)(F)F,-0.7,7%,5,4,-14,-2.6%,-23
Cc1cc(Cl)ccc1OCC(=O)NCC(=O)N/N=C/c1ccco1,-0.7,-5%,9,-3,-11,3.1%,-3
COc1cc(/C=N/NS(=O)(=O)c2ccc(Br)cc2)ccc1O,-0.6,8%,1,0,-1,0.6%,-17
CCN(CC)CCSc1nnc2c3cc(C)ccc3n(Cc3ccccc3)c2n1,-6.3,6%,-8,-3,-25,-0.7%,10
COc1ccc(CCc2nc(C)ccc2O)cc1,-3.0&-2.0,9%&-5%,1&5,8&1,-11&-4,8.6%&1.7%,-15&-9
COc1ccc(C)cc1N(CC(=O)NC1CCCC1)C(=O)Cn1nnc(-c2ccc(C)o2)n1,0.5,20%,-16,5,0,-3.2%,-2

mol,D2 ag,Sfp PPTase inh,CtBP-E1A inh,Six1-Eya2 inh,D2 PAM,PINK1 expr mod,TRPV1 PAM
Oc1cccc(/C=N/Nc2ncnc3c2ncn3Cc2ccccc2)c1,-0.1,9%,-9,-2,-7,-0.6%,-10
Cc1ccc(-c2cc(C(=O)O)n[nH]2)o1,-2.4,-6%,-7,-9,-1,12%[38.3 µM],-25
CCCOc1ccccc1C(=O)N1CCNC(=O)C1CC(=O)OC(C)C (stereo not drawn),0.2,15%,7,-3,0,-1.0%,-6
CCC(=O)N1CCN(CCN=CC2=C(O)CC(c3cccs3)CC2=O)CC1 (stereo not drawn),1.3,15%,9,6,0,.,7
CC(C)Sc1cc(N2CCOCC2)nc(-c2ccccc2)n1,-5.2,-4%,26,10,-30,26%,-10
O=C1CC(NCc2ccncc2)C(=O)N1c1ccc(Cl)cc1 (stereo not drawn),-2.3,-3%,3,-6,-7,3.1%[38.3 µM],7
Cc1ccccc1OCc1nnc(SC(C)C(=O)O)n1Cc1ccccc1 (stereo not drawn),-1.9,13%,-20,7,-4,3.0%,?
Cc1ccc(-n2nnc3c(=O)n(CC(=O)c4ccccc4)cnc32)cc1,-4.3,5%,4,1,-6,1.5%,-25
O=C(Nc1ccccn1)c1ccc(Br)c(S(=O)(=O)N2CCCC2)c1,-2.6,0%,-7,-1,-11,4.6%,-13
Cc1cccc(C(=O)c2cccc(C)c2)c1,-6.9,9%,10,16,-18,?,-6
CCOC(=O)c1c(NC(=O)C(C)Sc2nnc(C)c(=O)[nH]2)sc2c1CCCC2 (stereo not drawn),-0.6,9%,-16,-7,0,-0.7%,6
CCC(C)c1ccc(NC(=O)CSc2nncn2N)cc1 (stereo not drawn),0.1,8%,6,-1,-12,2.9%,0

mol,D2 ag,Sfp PPTase inh,CtBP-E1A inh,Six1-Eya2 inh,D2 PAM,PINK1 expr mod,TRPV1 PAM
O=C(Nc1ncc2c(n1)CC(c1ccco1)CC2=O)c1ccccc1 (stereo not drawn),-5.2,0%,1,2,-3,-0.3%,-7
COc1cc(/C=N/NC(=O)c2ccc(N(C)S(=O)(=O)c3ccccc3)cc2)cc(OC)c1OC,2.1,7%,-21,-13,-4,4.3%,0
CCCCCSc1nc2c(cnn2-c2ccc(F)cc2)c(=O)[nH]1,-2.5,1%,4,7,-4,3.4%,16
CN1C(=O)c2ccccc2C(O)c2ccccc21 (stereo not drawn),0.2,.,7,-3,-1,0.2%,.
Cc1cc(=O)oc2cc(OS(C)(=O)=O)ccc12,-1.2,13%&1%,16,4,1,-0.2%,14&7
Cc1ccccc1C(=O)Nc1ccccc1C(=O)N1CCC(C)CC1,-2.7,6%,4,7,-1,-0.3%,0
COc1ccc(-c2nc(CS(=O)CC(=O)NC(C)CCc3ccccc3)c(C)o2)cc1OC (stereo not drawn),-4.7,2%,.,-5,-5,-0.6%,19
Cc1cc(C)c(C(=O)/C=C/c2cccc3ccccc23)c(=O)[nH]1,-1.3,-8%,-8,7,-21,5.6%,0
COc1ccc(-n2nc3c(c2NC(=O)c2ccccc2)CS(=O)(=O)C3)cc1,-3.6,.,-1,7,-17,-0.9%,.
CCN1CCCC1CNC(=O)C(=O)Nc1ccc(OC)cc1 (stereo not drawn),0.5,3%,10,0,-11,.,7
CCC1Oc2ccccc2N(CC(=O)NCCN2C(C)CCCC2C)C1=O (stereo not drawn),-2.0,14%,61,20,-21,-0.1%[38.3 µM],-17
COCCNC(=S)N1CCc2cc(OC)c(OC)cc2C1COc1cc(C)cc(C)c1 (stereo not drawn),-4.8,14%,-27,-27,-5,2.8%,5

mol,D2 ag,Sfp PPTase inh,CtBP-E1A inh,Six1-Eya2 inh,D2 PAM,PINK1 expr mod,TRPV1 PAM
O=C(COC(=O)c1cncc(Br)c1)Nc1ccc(S(=O)(=O)N2CCOCC2)cc1,-3.5,.,-10,8,-8,0.7%,.
COc1ccc(-n2c(CSc3nc(C)cc(C)n3)nnc2SCC(=O)Nc2nccs2)cc1,1.1,16%,-1,1,-1,9.0%,-3
CN(c1ccccc1C(=O)Nc1cccc([N+](=O)[O-])c1)S(=O)(=O)c1ccccc1,-2.3,-2%,-1,0,-2,1.9%,3
Cc1ccc2cc3cc(C(=O)NCCCN4CCCC4=O)oc3nc2c1,3.7,15%,-21,-6,4,4.3%,11
COc1ccccc1-n1c(-c2ccccc2)c[nH]c1=S,-8.2,10µM*,0,-11,-4,5.1%,-2
CCOC(=O)c1cnc2c(F)ccc(F)c2c1Sc1ccccc1,-0.8,-4%,3,0,-2,-0.8%,-11
CC(=O)Nc1ccc(NC2=C/C(=N/S(=O)(=O)c3cccs3)c3ccccc3C2=O)cc1,13,-7%,-29,0,26,-0.8%,12
COC(=O)c1ccc(C(=O)OC)c(NC(=S)N2CCCCC2C)c1 (stereo not drawn),-2.0,?,14,-1,-16,1.9%,4
O=C(COc1ccccc1)NC(=S)Nc1ccc2c3c(cccc13)CC2,-0.9,12%,-1,5,-2,0.7%,3
CCOC(=O)c1[nH]c(C)c(C(=O)OCC)c1C,-6.1,-6%,-2,-5,-10,2.1%,-4
Cc1ccc(-c2csnn2)cc1,-7.4,10%,.,7,-17,2.0%,7
N=C1CCCN1CC(=O)c1ccc(Br)cc1,-1.2,7%,3,0,10,3.3%,-9

Taken from above:
Six1-Eya2 inh with Cc1ccc(-c2csnn2)cc1 stands at 7
Six1-Eya2 inh with CN(c1ccccc1C(=O)Nc1cccc([N+](=O)[O-])c1)S(=O)(=O)c1ccccc1 stands at 0
PINK1 expr mod with COC(=O)c1ccc(C(=O)OC)c(NC(=S)N2CCCCC2C)c1 (stereo not drawn) stands at 1.9%

More records.
mol,D2 ag,Sfp PPTase inh,CtBP-E1A inh,Six1-Eya2 inh,D2 PAM,PINK1 expr mod,TRPV1 PAM
Nc1ccn(CC(=O)NCCNc2ccc([N+](=O)[O-])cn2)c(=O)n1,-3.6,.,4,7,-6,0.0%,1
OCCC1CN(Cc2c(F)cccc2Cl)CCN1C1CCCC1 (stereo not drawn),-1.2,5%,-1,4,-19,0.7%,3
C/C(=N/NC(=O)c1cccnc1)C1=C(O)CC(C)(C)CC1=O,2.3,2%,-7,-8,-1,2.1%,3
Cc1cc(C)c(S(=O)(=O)N2CCC(C(=O)NCc3ccc(Cl)cc3Cl)CC2)c(C)c1,-1.2,10%,-1,2,5,-2.4%,10
COc1cc(CNCc2ccc3c(c2)OCO3)c([N+](=O)[O-])cc1OC,2.3,?,.,-6,-64,1.1%,-21
O=C(c1c[nH]c2ccccc12)N1CCN(c2ccccc2)CC1,-5.9,1%,-8,-4,-8,0.0%,-12
O=c1oc(-c2ccccc2)nc2sc3c(c12)CCCC3,0.7,-7%,9,11,-2,.,12
COc1ccc(C=CC(=O)c2cc(O)ccc2O)cc1,1.5,.,2,-4,-3,2.8%,.
O=C(Nc1ccccn1)Nc1cccs1,-2.1,50µM*,5,-3,-26,.,-4
CC1(C(=O)NCc2ccc(C(F)(F)F)cc2)CCN1Cc1c(F)cccc1F (stereo not drawn),-3.3,.,11,34,9,18%,.
CCCCCCCCN1[C@@H](CC(=O)O)c2cc(C(F)(F)F)ccc2S1(=O)=O,-4.9,.,5,-5,-2,3.2%,.
CC1Cc2cc(/C(O)=C3/C(=O)C(=O)N(CCCn4ccnc4)C3c3ccco3)ccc2O1 (stereo not drawn),1.6,-2%,-1,2,-5,0.9%,-11

mol,D2 ag,Sfp PPTase inh,CtBP-E1A inh,Six1-Eya2 inh,D2 PAM,PINK1 expr mod,TRPV1 PAM
CCN(CC)S(=O)(=O)c1cccc2cc(C(=O)O)c(O)cc12,-5.9,14%,-1,1,-9,-2.0%,4
C=CCNC(=S)NNC(=O)C(CCCC)CC(C)(C)O (stereo not drawn),-0.3,18µM*,1,3,25,3.7%,-6
O=C(Nc1cccc(-c2cccc(Cl)c2)c1)C1CCN(C2CCC2)CC1,-0.6,-24%,-5,-4,-29,0.4%,-8
COc1ccc(C(=O)O)cc1S(=O)(=O)NC(C)C,-3.3,-5%,2,4,-4,0.2%,4
COc1ccc(-c2noc(CCC(=O)N3CCN(c4cccc(C(F)(F)F)c4)CC3)n2)cc1,1.4,-2%,2,-1,-1,3.2%,8
CSCCC(NC(=O)c1ccccc1Cl)C(=O)NCCOc1ccc(C)cc1 (stereo not drawn),-1.7,.,2,-2,-7,-0.3%,.
O=C(O)c1ccccc1Nc1cccc(C(F)(F)F)c1,-2.7,9%&-3%&17%&-2%&10%,5,-9,12,0.3%,16

Screening data as filed in PubChem BioAssay.
